# S1P3 ag – agonists of human S1P3 receptor; Q99500; S1P3 NFAT-BLA reporter cells, agonism, FRET ratio; relative to 1 µM S1P, basal subtracted; activation, % at 4.5 µM; 0.1% of 60,000 active; AID 373;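 active means activation above the screen-wide mean plus 3 SD, cut at about 4.5% in these data, passing the limit was not always enough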; further: some compounds called inactive have numbers as strong as hits
#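 Measure – % activation relative to 1 µM S1P (100%), per plate · System – stable CHO line with human S1P3, Gα16, NFAT-BLA reporter · Timing – cells plated overnight, compound 4 h 37 °C, substrate 2 h RT · Technique – fluorescent BLA substrate, ex 405 nm, em 460/535 nm ratio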
# S1P1 ag-PAM – S1P1 (human) agonism or agonism potentiation. P21453. activation, % at 9.5 µM. 0.57% of 56,000 active. S1P1 CRE-bla cells, forskolin, beta-lactamase FRET, potentiator mode; S1P1 agonist co-added at EC20, 2 nM; 100% = saturating reference agonist, 0% = basal. AID 449;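 active means activation above a cutoff set at the mean activation of all tested compounds plus 3 SD, cut at about 54% in these data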;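 further: forskolin at 4 µM as EC80 and the EC20 agonist is SEW2871; 100% = SEW2871 at its EC100 plus forskolin at EC80; some compounds past the cut are filed as inactive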
# E coli RNAP – Escherichia coli RNA polymerase inhibition; E. coli RNA polymerase, fluorescence transcription assay; inhibition, %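 (tested at 10 µM)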; 0.2% of 62,000 active; in the data active means inhibition above about 20%;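 further: 0% = enzyme without compound and 100% = no enzyme blank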
# Target sequence (P0A8V2 whole entry, looked up): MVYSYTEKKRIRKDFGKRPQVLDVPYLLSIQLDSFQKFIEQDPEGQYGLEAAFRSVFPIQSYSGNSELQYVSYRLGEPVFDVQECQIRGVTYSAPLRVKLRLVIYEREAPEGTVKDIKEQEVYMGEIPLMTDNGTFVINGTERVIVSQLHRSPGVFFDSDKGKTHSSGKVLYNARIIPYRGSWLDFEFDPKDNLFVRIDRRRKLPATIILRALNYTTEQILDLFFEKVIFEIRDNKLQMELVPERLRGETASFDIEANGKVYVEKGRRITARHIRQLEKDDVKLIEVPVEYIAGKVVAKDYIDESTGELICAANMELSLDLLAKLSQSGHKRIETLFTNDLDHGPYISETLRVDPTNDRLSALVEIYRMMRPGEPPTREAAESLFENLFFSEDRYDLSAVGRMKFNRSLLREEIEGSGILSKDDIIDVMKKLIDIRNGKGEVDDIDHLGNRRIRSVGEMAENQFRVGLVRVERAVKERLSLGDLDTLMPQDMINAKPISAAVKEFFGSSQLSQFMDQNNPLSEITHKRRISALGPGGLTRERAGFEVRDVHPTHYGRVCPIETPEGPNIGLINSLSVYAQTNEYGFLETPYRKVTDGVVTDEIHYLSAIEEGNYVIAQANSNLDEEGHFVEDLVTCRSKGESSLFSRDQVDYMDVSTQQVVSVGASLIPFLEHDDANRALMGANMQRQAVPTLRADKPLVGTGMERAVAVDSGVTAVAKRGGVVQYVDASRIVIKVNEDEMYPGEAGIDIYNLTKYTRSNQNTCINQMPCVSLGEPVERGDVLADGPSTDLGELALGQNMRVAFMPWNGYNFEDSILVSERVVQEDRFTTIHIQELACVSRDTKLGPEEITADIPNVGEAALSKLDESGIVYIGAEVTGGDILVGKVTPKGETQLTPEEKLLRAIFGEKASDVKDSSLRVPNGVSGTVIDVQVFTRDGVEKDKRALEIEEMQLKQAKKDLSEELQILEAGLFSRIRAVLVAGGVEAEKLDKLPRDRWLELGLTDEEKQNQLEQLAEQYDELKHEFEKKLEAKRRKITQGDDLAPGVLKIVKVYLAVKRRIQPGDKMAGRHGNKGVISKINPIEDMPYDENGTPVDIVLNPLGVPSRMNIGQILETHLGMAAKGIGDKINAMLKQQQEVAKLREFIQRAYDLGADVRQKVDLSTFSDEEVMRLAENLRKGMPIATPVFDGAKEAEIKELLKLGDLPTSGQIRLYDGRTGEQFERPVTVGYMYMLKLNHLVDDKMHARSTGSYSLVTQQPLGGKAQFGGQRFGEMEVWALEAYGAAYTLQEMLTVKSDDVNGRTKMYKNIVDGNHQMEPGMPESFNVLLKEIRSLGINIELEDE
# M1 antag – M1 muscarinic receptor (rat) antagonism. P08482. CHO-M1 cells, Fluo-4 calcium, ACh EC80 antagonist mode; hits give low values. B-score at 10 µM. 3.4% of 64,000 active;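 active means calcium fluorescence response, raw or row-and-column corrected B-score, differing from the plate sample mean either way at a set confidence level, mostly lower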
# D1 allo mod – allosterically modulates the human D1 dopamine receptor; HEK293 D1, CRE-luciferase, dopamine EC30 potentiation; actives deviate in either direction; B-score at 10 µM; 5.9% of 58,000 active; AID 641;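 active means luminescence count or its row- and column-corrected plate score outside the 99.7% band of the plate's sample wells, on either side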
# Active calls of the source: *; / = no result given. An excerpt; count on the stated rates, not on these rows.
no. | S1P3 ag | S1P1 ag-PAM | E coli RNAP | M1 antag | D1 allo mod | smiles
1 | -0.4 | 0 | 3 | -0.5 | 0.15 | COc1cc(S(=O)(=O)n2c(C)nc3ccccc32)ccc1F
2 | -0.9 | 6 | 0 | 0.043 | -0.25 | O=C(CN1C(=O)C2C3C=CC(C3)C2C1=O)Nc1nc(SCc2ccc(Cl)cc2)n[nH]1 (configuration not stated)
3 | / | / | 5 | 0.18 | 0.53 | c1ccc2sc(SN3CCOCC3)nc2c1
4 | -1.0 | -18 | -9 | 0.13 | -0.069 | COc1cc(OC)c(C(=O)Nc2ncn[nH]2)cc1OC
5 | 0.4 | 0 | 11 | -0.22 | / | Cc1ccc(S(=O)(=O)N2CCCCC2)cc1C(=O)Nc1ncn[nH]1
6 | -0.8 | -14 | 11 | -1.8 | 3.1 | Cc1sc2ncnc(SCC(=O)N3CCN(C(=O)c4ccco4)CC3)c2c1C
7 | -1.0 | -8 | / | 0.36 | 0.023 | Cc1ccnc2c1NC(=O)c1cccnc1N2C1CC1
8 | -0.9 | 2 | -4 | 0.82 | -3.6 | O=C(COc1ccc(Cl)cc1Cl)Nc1noc2ccccc12
9 | 0.9 | 17 | 9 | 0.8 | 0.15 | C[C@H]1C[C@@H]2[C@H]([C@@H](O)C[C@@]3(C)[C@H]2CC[C@]3(O)C(=O)CO)[C@@]2(C)C=CC(=O)C=C12
10 | -0.1 | -8 | / | 0.41 | 0.44 | N#Cc1ccccc1CSc1nc(O)cc(=O)[nH]1
11 | -3.2 | -4 | 4 | 0.23 | -0.89 | CC(C)NCC(O)COc1ccc(CCOCC2CC2)cc1 (configuration not stated)
12 | -3.9 | -1 | 9 | 0.0055 | / | N[C@@H](Cc1cc(I)c(Oc2ccc(O)c(I)c2)c(I)c1)C(=O)O

# Three entries out of the list above, arranged by the number in M1 antag, high to low:
no. | S1P3 ag | S1P1 ag-PAM | E coli RNAP | M1 antag | D1 allo mod | smiles
9 | 0.9 | 17 | 9 | 0.8 | 0.15 | C[C@H]1C[C@@H]2[C@H]([C@@H](O)C[C@@]3(C)[C@H]2CC[C@]3(O)C(=O)CO)[C@@]2(C)C=CC(=O)C=C12
12 | -3.9 | -1 | 9 | 0.0055 | / | N[C@@H](Cc1cc(I)c(Oc2ccc(O)c(I)c2)c(I)c1)C(=O)O
5 | 0.4 | 0 | 11 | -0.22 | / | Cc1ccc(S(=O)(=O)N2CCCCC2)cc1C(=O)Nc1ncn[nH]1

# Complete entries, quoted from the list. Values in the order: S1P3 ag | S1P1 ag-PAM | E coli RNAP | M1 antag | D1 allo mod
# `Cc1sc2ncnc(SCC(=O)N3CCN(C(=O)c4ccco4)CC3)c2c1C` is listed with -0.8 | -14 | 11 | -1.8 | 3.1
# `O=C(CN1C(=O)C2C3C=CC(C3)C2C1=O)Nc1nc(SCc2ccc(Cl)cc2)n[nH]1` (configuration not stated) is listed with -0.9 | 6 | 0 | 0.043 | -0.25

# An excerpt from above, showing only D1 allo mod, S1P1 ag-PAM and S1P3 ag:
No.	structure	D1 allo mod	S1P1 ag-PAM	S1P3 ag
7	Cc1ccnc2c1NC(=O)c1cccnc1N2C1CC1	0.023	-8	-1.0
1	COc1cc(S(=O)(=O)n2c(C)nc3ccccc32)ccc1F	0.15	0	-0.4
12	N[C@@H](Cc1cc(I)c(Oc2ccc(O)c(I)c2)c(I)c1)C(=O)O	/	-1	-3.9
5	Cc1ccc(S(=O)(=O)N2CCCCC2)cc1C(=O)Nc1ncn[nH]1	/	0	0.4
3	c1ccc2sc(SN3CCOCC3)nc2c1	0.53	/	/
10	N#Cc1ccccc1CSc1nc(O)cc(=O)[nH]1	0.44	-8	-0.1

# Assay outcomes (PubChem)
